# Source: PubChem BioAssay (National Center for Advancing Translational Sciences (NCATS))
# Vaccinia Venus: qHTS for Stage-Specific Inhibitors of Vaccinia Orthopoxvirus: Venus Reporter Primary qHTS. Vaccinia virus Venus reporter expression, fluorescence. Potency, µM (doses to about 36.5 µM), without a hit: at the top dose activity change, negative = inhibition, most hits filed as inhibitors. 330,000 tested, 0.46% active. AID 720580, 2013; active means well fitted inhibition curve with a large enough effect; inconclusive means small, poorly fitted or top-dose-only effect; inactive means no such curve, though single readings can be large or run the other way; tested in A549 cells; also: nearly all actives have a fitted effect of over 30% in size; inactives centre near -10
# Vaccinia mCherry: qHTS for Stage-Specific Inhibitors of Vaccinia Orthopoxvirus: mCherry Reporter Primary qHTS; Vaccinia virus mCherry reporter infection, fluorescence; about a quarter of the inactives have no number; Potency, µM (doses to about 36.5 µM), inactives show top-dose activity change, negative = inhibition, usual class: inhibitors; 310,000 tested, 0.63% active; active = well fitted inhibition curve with a large enough effect; inconclusive = small, poorly fitted or top-dose-only effect; inactive = no such curve, though single readings can be large or run the other way; tested in A549 cells; also: nearly all actives have a fitted effect of over 35% in size; inactives centre near -10
# An asterisk follows results filed as active; i = inactive; ? = inconclusive; · = not tested or not shown; [ ] = remark or other dose. % is scaled to controls: 0 for no effect and ±100 for the full control effect; potency is read from the fitted curve at half-maximal effect.
Compound	Vaccinia Venus	Vaccinia mCherry
NS(=O)(=O)c1ccc(N2N=C(c3ccccc3)CC2c2cccc(Br)c2)cc1 (stereo unspecified)	-33%	?
CC(NC(=O)c1ccccc1F)c1nnc(SCC(=O)NC2CCCC2)n1C (stereo unspecified)	-4%	i
O=C(Cn1nnc(-c2ccncc2)n1)N1CCc2ccccc21	-16%	i
CCOCCc1nnc(NC(=O)c2ccc(OC)c(OC)c2)s1	-8%	-2%
O=C(c1ccccc1F)N1CCC(c2nc3c(nnn3Cc3cccc(F)c3)c(=O)[nH]2)CC1	0%[7.34 µM]	1%[7.34 µM]
COc1ccc(CCNC(=O)c2ccccc2NS(=O)(=O)c2c(F)cccc2F)cc1	-11%	-14%
Cc1ccc(CNC(=O)CN(C)S(=O)(=O)c2cccc3cccnc23)cc1	-2%	2%
O=C(Cc1cccc(NC(=O)C2CCCN(C(=O)C3CCCCC3)C2)c1)Nc1cccc(C(=O)N2CCCCC2)c1 (stereo unspecified)	-4%	-29%
C#CCOCCOCCOCCNc1nc(N2CCN(C(=O)CCCCCCCCCCNC(=O)[C@H]([C@@H](C)CC)n3cc(CCCCCN)nn3)CC2)nc(N2CCN(C(=O)CCCCCCCCCCNC(=O)[C@H](CO)n3cc(CCCCCN)nn3)CC2)n1	10µM*	?
Cc1cccc(C)c1-n1nnnc1-c1nc2cc3ccccc3cc2[nH]c1=O	36%[activator]	-14%
O=C(NCCNCc1ccccc1)c1ccco1	-12%	i
CN(C)c1nc(N)ncc1-c1ccc(Oc2ccccc2)cc1	-15%	-3%
Cc1ccc(NC(=O)CSc2nc3ccc(Br)cc3[nH]2)c(C)c1	-8%[7.34 µM]	-12%[7.34 µM]
CCCc1cc(=O)[nH]c(SCc2nc(-c3ccccc3)no2)n1	-1%	i
CC1CCCCC1NC(=O)COC(=O)C12CC3CC(CC(Cl)(C3)C1)C2 (stereo unspecified)	-3%	-10%
Cc1ccc(-c2nc(N)sc2CC(=O)OCC(=O)NC2CCCC(C)C2C)cc1 (stereo unspecified)	-10%	i
Cc1cn2c(=O)cc(COC(=O)c3ccccc3F)nc2s1	?	?
O=C(C=Cc1ccccc1)c1cc(Br)ccc1O	-8%	-12%
S=C(NCCSCc1ccc(Cl)c(Cl)c1)Nc1ccccc1	-25%	i
CC1CCCCN1C(=O)CSc1nnc(-c2ccc(Cl)s2)o1 (stereo unspecified)	-29%	·
COc1ccccc1CN(Cc1cc2cc(C)ccc2[nH]c1=O)Cc1nnnn1Cc1ccco1	?	·
Cn1cnc(C(=O)N2CCN(c3ccccc3)CC2)c1C(=O)N1CCN(c2ccccc2)CC1	-11%	-5%
C=CCN(CC(=O)NCc1ccc(F)cc1)C(=O)c1csnn1	-2%	-12%
OC[C@@H]1CN(Cc2ccc3c(c2)OCO3)C[C@H](n2cnc3c(NC4CCCC4)ncnc32)O1	-3%	i
O=C1CCC(=O)N1c1ccc(NCc2ccccc2Cl)c([N+](=O)[O-])c1	-14%	i
O=C(c1ccco1)N1CCN(C2CCCC2)CC1	0%	0%
CCOC(=O)c1cc(CN2CCOCC2)oc1-c1ccccc1	-16%	-11%
COc1ccc(NC(=O)CSc2nc3ccccc3nc2N2CCCC2)cc1Cl	-9%	0%
CCNC(=O)c1cnc2sc(N3CCC(C)CC3)nn2c1=O	-12%	-7%
CN(C)c1ccc(NC(=O)COC(=O)c2cc(=O)c3ccccc3o2)cc1	-4%	-10%
O=c1c(Cc2c(F)cccc2Cl)c(O)ccn1CC1CCCO1 (stereo unspecified)	-13%	i
O=C(CCc1nc2ccccc2[nH]c1=O)N/N=C/c1ccccc1	5%	-10%
COCc1cc(=O)n2[nH]c(-c3cccs3)cc2n1	-13%	-1%
Cc1nc(N2CCOCC2)c2c(C(=O)N3CCN(c4ccc(Cl)cc4)CC3)c(C)oc2n1	-14%	-4%
CCOC(=O)C1=C(COC(=O)c2cc(OC)c(OC)cc2[N+](=O)[O-])NC(=O)NC1C (stereo unspecified)	-3%	-7%
CC(=O)Nc1ccc(C(=O)CN2CCN(c3ccccc3)CC2)cc1	10%	?
Cc1ccccc1C1=NCC(=S)Nc2ccc(Cl)cc21	-16%	-28%
Cc1cc2nc(CCN(C(=S)NCC(C)C)C3CCCC3)[nH]c2cc1C	?	?
CC1(C(=O)NS(=O)(=O)c2ccccc2Cl)CCN1C(=O)C1(c2ccccc2)CCCC1 (stereo unspecified)	7%	14%
Cc1ccc(S(=O)(=O)N(C)C)cc1NC(=O)C(C)OC(=O)C1CCCCC1 (stereo unspecified)	-4%	i
CC(=O)N1c2ccc(S(=O)(=O)NCc3ccc(Cl)cc3)cc2CC1C (stereo unspecified)	-18%	-10%
COCCN(C)C(=O)c1cnn(-c2ncc3c(n2)-c2ccccc2CCC3)c1C1CC1	3%	-8%
CCn1cc(C(=O)O)c(=O)c2cc(F)c(N3CCN(S(=O)(=O)c4ccc(NC(=O)OC)cc4)CC3)cc21	-5%	-10%
CCCn1c(=S)[nH]c2cc(C(=O)N3CCN(C(=O)OCC)CC3)ccc2c1=O	-9%	i
CCC1CCCCN1C(=O)c1ccc(OC)c(OC2CCN(C(C)=O)CC2)c1 (stereo unspecified)	-2%	1%
COc1cc(-c2cccc(Cl)c2)cc2c1OCCN(C(=O)CCn1ccc(C)n1)C2	-7%	-25%
Cc1ccc(NC(=O)CSCC(N)=O)cc1C	-4%	-14%
CCOc1ccc(N(CC)S(=O)(=O)N2CCCC(C(=O)Nc3ccc(OC)c(Cl)c3)C2)cc1 (stereo unspecified)	-23%	-18%
CCc1cc2c(cc3c(=O)n(CC(=O)N4CCN(C)CC4)ncn32)s1	-14%[7.34 µM]	i[7.34 µM]
CCOC(=O)[C@]12CCCC=C1N(Cc1ccco1)C(=O)[C@H](CC(=O)NCCCN1CCCC1=O)C2	9%	39%[activator]
Cc1ccc(NC(=S)NC(=O)C2CC2)c(C)c1	-5%	-12%
N#Cc1ccc(Oc2ccc(C#N)c(C#N)c2)cc1C#N	4%	-13%
O=C(COc1ccc(Cl)cc1)Nc1ccc2c(c1)CCC2	-15%	-18%
Cc1ccc(S(=O)(=O)CCC(=O)Nc2cc(C)on2)cc1	-13%	-4%
O=C(CN1C(=O)c2ccc([N+](=O)[O-])cc2C1=O)NC1CCCCCC1	-19%	-25%
CSc1sccc1/C=C(/C#N)C(=O)c1ccco1	6%	-3%
CN(CCO)c1cc(N2CCCCC2)c2nonc2c1[N+](=O)[O-]	-23%	-10%
O=C(COC(=O)CCC(=O)c1ccc(Cl)cc1)NC1CC1	5%	i
Cc1cc(/C=N/NC(=O)Cn2c3ccccc3c(=O)c3ccccc32)c(C)n1-c1ccc(Cl)cc1	-14%	i
O=C(CNC(=O)c1ccc(Br)o1)NNC(=O)c1ccccc1F	-9%	i

# (more compounds)
Compound	Vaccinia Venus	Vaccinia mCherry
O=[N+]([O-])c1cc([N+](=O)[O-])c2cccnc2c1Oc1ccccc1O	-28%	?
Cc1ccc(S(=O)(=O)/N=C2/NC(=O)/C(=C/c3ccc(Br)o3)S2)cc1	5%	-10%
Cc1ccc(COc2ccc3oc(-c4ccccc4)c(C(=O)O)c3c2)cc1	-9%	-7%
Cc1ccc(C(=O)Nc2c(C#N)c(C)c(C)n2Cc2ccccc2)cc1	-7%	·
O=C(CSc1nccn1Cc1ccco1)Nc1ccccc1F	-18%	-3%
C=CCn1c(C)cc(C(=O)COc2ccc(C)nc2[N+](=O)[O-])c1C	-14%	i
CC(=O)NC(c1ccccc1)c1nc(-c2ccccc2C)cs1 (stereo unspecified)	-9%	0%
CC[C@@]1(C(=O)OC)N[C@H](CN(C)C(=O)NC(C)C)[C@@H]2C(=O)N(C)C(=O)[C@@H]21	-15%	1%
O=C(O)CCCC(=O)NNc1ncnc2ccccc12	-15%	i
Cc1nc(SCc2cccc(C(=O)O)c2)nc2c1CCCC2	-1%	10%
CCOC(=O)c1c(NC(=S)Nc2ccc(OCC)cc2)sc2c1CCN(C)C2	-4%	-15%
COC(=O)c1cc(S(=O)(=O)Nc2cc(S(=O)(=O)N(C)C)ccc2C)oc1C	1%	-9%
CC1(C)Cc2c(sc3ncnc(NNC(=S)NCc4ccccc4)c23)CO1	-30%	-10%
CCC(C(=O)Nc1ccc(C(=O)OC)cc1)n1c(=O)c(-c2ccccc2NC(C)=O)nc2ccccc21 (stereo unspecified)	-16%	i
Cn1cc(Cl)c(C(=O)N(Cc2ccccc2)c2ccccn2)n1	-4%	-11%
CCOc1ccc(-c2cc3nc(C4CCN(C(=O)OC(C)(C)C)CC4)c(C(=O)Nc4c(C)cccc4C)cn3n2)cc1	-16%	-7%
O=C(NN(C(=O)c1ccccc1)c1ccccc1)c1ccccc1	-15%	-6%
CC(C)[C@H](NC(=O)NCc1ccco1)C(=O)O	-10%	·
C#CCOCCOCCOCCNc1nc(N2CCOCC2)nc(N2CCN(C(=O)[C@H](CCCCN)n3cc([C@@H](N)CO)nn3)CC2)n1	-12%	i
Cc1ccccc1-c1nnc(SCC(=O)N(CC(C)C)c2c(N)n(CC(C)C)c(=O)[nH]c2=O)n1C	-6%	-3%
CC(=O)Nc1ccc(-c2ccc3nnc(C)n3n2)cc1	4%	-2%
O=C(NC(c1ccc(F)cc1)c1ccc2ccccc2n1)C1CCN(CCOc2ccc(F)cc2)CC1 (stereo unspecified)	10µM*	11µM*
CC(=O)Nc1cccc(OCc2c(F)cccc2Cl)c1	-20%	i
O=C(C[C@H]1CC[C@H](NC(=O)Nc2ccccc2F)[C@@H](CO)O1)NCc1ccc(-c2ccccc2)cc1	-12%	2%
Cc1ccc(/C=C/c2nc3ccccc3n2S(=O)(=O)c2cccc(Cl)c2)cc1	-14%	-8%
CC(C)(C)Cc1c(-c2ccccc2)nc2ccc(Cl)cn12	-16%	-18%
Cc1[nH]c2ccccc2c1C(=O)C(=O)NCc1nnnn1-c1cccc(F)c1	-18%	-5%
CCc1ccc(CNC(=O)CSc2cc(=O)n(CC)c3ccccc23)cc1	-7%	-20%
CC1CCCCC1NC(=O)c1ccc(CNc2c(N3CCCC3)c(=O)c2=O)cc1 (stereo unspecified)	-7%	8%
O=C1N(Cc2ccccc2Cl)c2ccccc2C1(O)c1c[nH]c2ccccc12 (stereo unspecified)	-6%	-4%

# Random excerpt: 3 compounds from above.
Compound	Vaccinia Venus	Vaccinia mCherry
CC(C)(C)Cc1c(-c2ccccc2)nc2ccc(Cl)cn12	-16%	-18%
O=C1N(Cc2ccccc2Cl)c2ccccc2C1(O)c1c[nH]c2ccccc12 (stereo unspecified)	-6%	-4%
CCc1ccc(CNC(=O)CSc2cc(=O)n(CC)c3ccccc23)cc1	-7%	-20%

# (list continues)
Compound	Vaccinia Venus	Vaccinia mCherry
COc1ccccc1CC(=O)Nc1cc(OC)c(NC(=O)c2ccccc2)cc1OC	?	i
O=C(CSc1nc2cc(Cl)ccc2s1)NC(=O)NCc1ccco1	-20%	-19%
O=C(c1cccc(Cl)c1)N1c2ncnn2C2(CCCCC2)[C@@H]2CCCC[C@@H]21	-2%	-5%
COC(=O)[C@]1(Cc2ccccc2)N[C@H](c2ccc(-c3ccccc3)cc2)[C@@H]2C(=O)N(C)C(=O)[C@@H]21	?	-20%
O=C(O)c1ccc(N=Nc2c(O)[nH]c3ccc(Br)cc23)cc1	-22%	-21%
Cc1ccc(S(=O)(=O)N(CC(=O)N2CCC(C)CC2)c2ccccc2)cc1	-19%	-25%
Nc1nc(NCc2ccco2)nc(N2CCN(Cc3ccccc3)CC2)c1[N+](=O)[O-]	-6%[7.34 µM]	-10%[7.34 µM]
CCn1c(SCC(=O)Nc2cccc(NC(=O)c3cccs3)c2)nnc1-c1ccncc1	-21%	·
CCOC(=O)c1sc(N2C(=O)C(O)=C(C(=O)c3ccco3)C2c2ccc(C)o2)nc1C (stereo unspecified)	2%	-21%
CCCCNC(=O)c1c[nH]c2ccc(S(=O)(=O)N3CCOCC3)cc2c1=O	-22%	-17%
O=C(Nc1nc2c(Cl)ccc(Cl)c2s1)c1ccco1	-25%	-11%
CC1CCCC(CC(=O)O)(CC(=O)O)C1 (stereo unspecified)	-20%	-5%
O=C(c1ccccc1)c1ccc(O)c(O)c1O	-2%	13%
Cc1cccc(C)c1N1C(=O)c2ccccc2C1=O	-12%	-10%
CCOc1ccc(NC(=O)CC2C(=O)N(c3cccc(OC)c3)C(=O)N2C2CCCCC2)cc1 (stereo unspecified)	-10%	-17%
CC1CCN(C2=NC(=O)/C(=C/c3cn[nH]c3-c3ccccc3)S2)CC1	-26%	-2%
Cc1ccc(NC(=O)c2ccc(OCC3CCCO3)cc2)cc1Cl (stereo unspecified)	-23%	?
CCOc1ccc(-n2c(=O)[nH]cc(C(=O)Nc3ccc(OC)c(OC)c3)c2=O)cc1	-11%	-13%
CCOC(=O)N1CCN(S(=O)(=O)c2ccc(C(=O)Nc3ccc4c(c3)C(=O)NC4=O)cc2)CC1	2%	i
COC(=O)c1ccc(CN(c2ccc(C(=O)O)c(O)c2)S(=O)(=O)c2ccc(Cl)c([N+](=O)[O-])c2)cc1	-9%	-10%
Clc1ccc(-c2n[nH]c3c2CCC3)c(Cl)c1	-7%	-13%
